NPYLR7 agonist – agonists of mosquito NPYLR7 receptor, primary screen, cell-based, Aedes aegypti, calcium fluorescence, mosquito biting behavior | HEK293T NPYLR7/Galpha15, GCaMP6s calcium fluorescence | hit rate 0.15% among 270,000 | Aedes aegypti neuropeptide Y-like receptor 7 (NPYLR7) | AID 1259423, 2018 | activation, % at 10 µM; in the data active means activation above about 40%;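 further: 0% = vehicle and 100% = reference agonist at the receptor; some compounds past the cut are filed as inactive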
NPYLR7 agonist max-min – recorded beside NPYLR7 agonist, whose call it bears; activation, %; measured here: Max-Min RFU normalised activation; some inactives read as strong as hits;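 span of the calcium signal over five minutes; 0% = vehicle and 100% = native peptide agonist; compound fluorescence can raise it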
Active calls of the source: *; & = joins results of further samples. A portion of the library; the hit share may differ from the screen's.

SMILES	NPYLR7 agonist	NPYLR7 agonist max-min
Cc1ccc(S(C)(=O)=O)cc1NC(=O)CCOc1cc(Cl)ccc1Cl	15	7
CN1CCC(CN2CCN(CCC(=O)N3CCCc4ccccc43)CC2)CC1	10	8
COc1cccc(CN2CCCn3cccc3C2c2cccc(Cl)c2)c1OC (configuration not stated)	-2	2
Cc1ccc(-c2nc(C)c(Cc3ccccc3)c(N3CCN(C(=O)c4ccccc4F)CC3)n2)cc1	-10	-3
CNCCOc1cccc(-c2cccc(O)c2)c1	5	-3
CCOC(=O)c1cc(-c2ccc(N3CCN(C(=O)c4cccc(C#N)c4)CC3)cc2)n(-c2ccccc2C)n1	25	11
N#Cc1c(N)c(C(=O)c2ccc(Cl)cc2)n2ccccc12	-5	-12
O=C(CNc1ccc(Cl)cc1F)N1CCN(c2ccccc2)CC1	7	5
CC1=NN(c2ccc(C(=O)O)cc2)C(=O)/C1=C/c1ccc(-c2ccc3c(c2)COC3=O)o1	-8	-12
Cc1cc2ncc(C(=O)N3CCCC(Cc4ccc(C(F)(F)F)cc4)C3)c(C)n2n1 (configuration not stated)	-5	8
CCCCCn1nc(C(=O)NNS(=O)(=O)c2ccc3ccccc3c2)c2ccccc2c1=O	1	-2
CC(C)=CC(=O)N1C(CC(C)C)SCC1C(=O)O (configuration not stated)	-2	-4
CCCCCOc1ncccc1Br	-2	-5
COc1ccc(-c2nc(C(=O)N(Cc3ccco3)Cc3ccc(OC)c4ccccc34)cs2)cc1	2	-2
c1ccc(CC(Cc2ccccc2)=NNc2nncc3ccccc23)cc1	1	1
Cc1cn2c3c(=O)n(C)c(=O)n(C)c3nc2n1-c1ccc(O)cc1	2	-3
O=C(NCCc1ccccn1)C(C1CCCC1)N1CCN(C(=O)c2ccco2)CC1 (configuration not stated)	20	17
Cc1nn(C(C)C)c(C)c1CN(C)C(=O)Cn1ncc(N(C)C)cc1=O	7	-3
CCCNC(=O)c1sc2nc(-c3ccccc3)cn2c1C	3	-1
C=CCc1ccc(O)c(-c2cc(CC=C)ccc2O)c1	-3	-5
c1ccc2c(c1)nc1n2CCN1CCNC1CCCCC1	-7	-6
CC(=O)N[C@@H]1C[C@H](Cc2ccccc2)O[C@H](/C=C/c2ccccc2)C1	18	8
CSc1ncccc1C(=O)Nc1nc2c(F)cc(F)cc2s1	10	3
CC(=O)OCc1ccc(-c2nc(-c3ccccc3)c(C)[nH]2)o1	3	0
NC(=NO)c1cncc(OCC(F)(F)F)n1	0	1
COc1cccc(N2CCN(C(=O)CCC3(Cc4ccc(F)c(OC)c4)CCC(=O)N3)CC2=O)c1 (configuration not stated)	4	0
Cc1cc(C(F)(F)F)nn1CC(=O)NCc1ccco1	5	2
CC(=O)Nc1c(-c2cc(C)cc(C)c2)nc2cc(C)ccn12	-4	3
O=c1ccc(-c2ccc3c(c2)OCO3)nn1Cc1cccc2ccccc12	7	-1
Cc1ccc(N2C(=O)C(c3c(C)[nH]n(-c4ccc(Cl)cc4)c3=O)=C([n+]3ccc(C)c(C)c3)C2=O)cc1	8	13
Cc1cc(C)cc(NC(=O)CSc2nc(=O)n3ccccc3n2)c1	-1	-3
COCCOC(=O)C1=C(C)NC2=C(C(=O)CCC2)C1c1ccc(F)c(F)c1 (configuration not stated)	-8	-15
Cc1noc(C)c1CCC(=O)N1CCCC2(CC1)CN(C)C(=O)O2 (configuration not stated)	7	4
COC(=O)CCCCC(=O)N1CCC(c2nc(-c3cccnc3)no2)CC1	6	2
Cn1ccnc1SCCNC(=O)c1cn(CC2COc3ccccc3O2)nn1 (configuration not stated)	2	-1
COCC1CN(c2ccc3nccn3n2)CCO1 (configuration not stated)	-1	-2
O=C(NCCN1CCC(c2ccccc2)C1)c1cn(C2CCCCC2)nn1 (configuration not stated)	-1	-2
CCOC(=O)CCCC(=O)Nc1cccc(-c2cc(C(=O)OCC)nn2-c2ccccc2C)c1	1	-1
O=C(COc1ccc(F)cc1)N1CCN(S(=O)(=O)Cc2ccccc2)CC1	-4	-5
CC(C)N(C)Cc1nnnn1CC(=O)NCC1COc2ccccc2O1 (configuration not stated)	13	4
CN(C)C(=O)c1ccc(OCCCC2CCCC2)cc1	1	-8
CC(C)CCc1nc(N2CCCN(S(=O)(=O)Cc3ccccc3)CC2)c2cnn(-c3cccc(Cl)c3)c2n1	23	20
CNS(=O)(=O)c1ccc(S(=O)(=O)Oc2ccc(C(C)(C)C)cc2C)cc1	-6	-7
CC(C)OC(=O)c1cc(NC(=O)CN2CCOC2=O)ccc1Cl	2	2
Cc1ccc2nc(N(CCCn3ccnc3)C(=O)C3COc4ccccc4O3)sc2c1 (configuration not stated)	-10	-15
O=C(Cc1cc(-c2cc3ccccc3o2)on1)NCc1ccccc1Cl	0	2
CC(C)Cc1nnc(NC(=O)CC2Oc3ccccc3NC2=O)s1 (configuration not stated)	3	7
COc1ccc(NC(=O)CSc2n[nH]c(C(C)C)n2)c(OC)c1	1	0
C=CCNC(=O)c1nnc2n(c1=O)CCN2c1ccc(OC)cc1	7	4
CC(C)=CCCC(C)CNC1C2CC3CC1CC(O)(C3)C2 (configuration not stated)	4	4

Copied from above, 16 compounds:
SMILES	NPYLR7 agonist	NPYLR7 agonist max-min
COCCOC(=O)C1=C(C)NC2=C(C(=O)CCC2)C1c1ccc(F)c(F)c1 (configuration not stated)	-8	-15
Cc1noc(C)c1CCC(=O)N1CCCC2(CC1)CN(C)C(=O)O2 (configuration not stated)	7	4
COC(=O)CCCCC(=O)N1CCC(c2nc(-c3cccnc3)no2)CC1	6	2
Cn1ccnc1SCCNC(=O)c1cn(CC2COc3ccccc3O2)nn1 (configuration not stated)	2	-1
COCC1CN(c2ccc3nccn3n2)CCO1 (configuration not stated)	-1	-2
O=C(NCCN1CCC(c2ccccc2)C1)c1cn(C2CCCCC2)nn1 (configuration not stated)	-1	-2
CCOC(=O)CCCC(=O)Nc1cccc(-c2cc(C(=O)OCC)nn2-c2ccccc2C)c1	1	-1
O=C(COc1ccc(F)cc1)N1CCN(S(=O)(=O)Cc2ccccc2)CC1	-4	-5
CC(C)N(C)Cc1nnnn1CC(=O)NCC1COc2ccccc2O1 (configuration not stated)	13	4
CN(C)C(=O)c1ccc(OCCCC2CCCC2)cc1	1	-8
CC(C)CCc1nc(N2CCCN(S(=O)(=O)Cc3ccccc3)CC2)c2cnn(-c3cccc(Cl)c3)c2n1	23	20
CNS(=O)(=O)c1ccc(S(=O)(=O)Oc2ccc(C(C)(C)C)cc2C)cc1	-6	-7
CC(C)OC(=O)c1cc(NC(=O)CN2CCOC2=O)ccc1Cl	2	2
Cc1ccc2nc(N(CCCn3ccnc3)C(=O)C3COc4ccccc4O3)sc2c1 (configuration not stated)	-10	-15
O=C(Cc1cc(-c2cc3ccccc3o2)on1)NCc1ccccc1Cl	0	2
CC(C)Cc1nnc(NC(=O)CC2Oc3ccccc3NC2=O)s1 (configuration not stated)	3	7

(list continues)
SMILES	NPYLR7 agonist	NPYLR7 agonist max-min
CCn1ncc(CN2CCOC(Cc3cccc(C(F)(F)F)c3)C2)c1C (configuration not stated)	-3	-4
O=C1OCC2(CCN(Cc3cc4n(n3)CCCNC4)CC2)O1	-3	-8
COCCCN(Cc1csc(COc2ccccc2C)n1)C(=O)C1CC1	0	2
COc1ccc(-n2nnc3c(=O)n(CC(=O)N4CCCc5ccccc54)cnc32)cc1	9	7
Cn1c(CNC(=O)CN)cc(=O)n(C)c1=O	-12	-18
CCNC(=O)C1CCN(c2ccc(C(F)(F)F)cc2[N+](=O)[O-])CC1	13	8
O=C(Nc1cccc(CN2CCOCC2)c1)C1COc2ccccc2O1 (configuration not stated)	6	3
CC(C)[C@H]1CC[C@H](C)C[C@@H]1OCC(=O)N1C[C@@H](C)O[C@@H](C)C1	8	8
NCC1CCN(C(=O)c2cccc(NCc3ccc(F)cc3)c2)C1 (configuration not stated)	26	17
N#Cc1cccc(S(=O)(=O)NCCSCc2ccsc2)c1	1	0
O=C(O)C1CN(C(=O)c2[nH]c3ccc(Cl)cc3c2-c2ccccc2)CCN1 (configuration not stated)	4	1
COCCNC(=O)[C@@]1(OCc2ccccc2C)CC(OCc2ccc(C#N)cc2)[C@@H]2OC(C)(C)O[C@@H]2C1 (some centres not stated)	-8	-18
CCOc1ccc(C(=O)N2CCN(c3ncnc4c3nnn4-c3ccc(OCC)cc3)CC2)cc1	-13	-18
CCCCN(CC(=O)N(CCc1ccc(OC)c(OC)c1)Cc1ccc(C)s1)C(=O)Nc1cccc(C)c1	21	24
CC(=O)N1CC(=O)N(CC(=O)Nc2nccs2)C1=S	4	2
CC(C)(C)N=CC(=CNC(C)(C)C)[N+](=O)[O-]	-10	-17
COC(=O)[C@@H]1C[C@H](NC(=O)c2cc(=O)[nH]c3ccc(C)cc23)CN1C	-1	4
Cc1ccc(-c2cnoc2NC(=O)CSc2nc(-c3cccnc3)cc(=O)[nH]2)cc1	3	1
Cc1ccccc1C1c2ccsc2CCN1CC(=O)N1CCN(C(=O)CCl)CC1 (configuration not stated)	-6	0
O=C(c1csc(CSc2nnc(-c3ccncc3)n2-c2ccccc2F)n1)N1CCOCC1	-8	-12
CCNC(=O)C1CSCN1C(=O)CC(C)(C)C (configuration not stated)	5	4
CCOC(=O)C1=C(C)NC(=O)NC1c1cc2c(C)ccc(C)c2[nH]c1=O (configuration not stated)	3	2
CC(=O)N[C@H]1[C@H](Oc2cccc3ccccc23)O[C@@H]2COC(C)(C)O[C@H]2[C@@H]1O	-2	-3
CC(=O)c1cccc(-c2ccccc2-c2nnc(C)s2)c1	5	4
CCC(c1ccncc1)N(C)C(=O)Nc1cc(F)c(N(C)C)c(F)c1 (configuration not stated)	5	2
O=C(Nc1cnn(CC(F)(F)F)c1)c1cc2ccc(Cl)cc2[nH]1	0	-5
Cc1ccc(C(c2ccccc2)N2CCN(C(=O)c3ccc(Cl)cc3Cl)CC2)cc1 (configuration not stated)	21	4
COc1ccc(F)cc1-c1c(-c2ccccc2)ncn1Cc1c(C)n[nH]c1C	4	-5
COc1cc(NC2CCN(Cc3ccccc3)C2)ncn1 (configuration not stated)	-2	4
CCOC(=O)c1cc(-c2ccc(CC)cc2)n(C2CCN(C(=O)c3cccc4ccccc34)CC2)n1	3	1
COc1ccc(CCN2CCC(CN(C)C3CCC3)CC2)cc1	2	-1
Cn1nnc2cc(C(=O)NCC3(c4ccc(Cl)cc4)CCOCC3)ccc21	-2	-4
OC[C@H]1O[C@@H](n2cnc3c(N[C@H]4CC5CCC4C5)ncnc32)[C@H](O)[C@@H]1O (some centres not stated)	-3	-34
Cn1cnc2cnc(Nc3cccc(C(F)(F)F)c3)cc21	-7	3
C=CCn1c(=S)[nH]c2ccsc2c1=O	-3	4
COc1cc(S(=O)(=O)N2CCCC2)c(OC)cc1Cl	0	1
CCOc1ncccc1-c1cc(CC)nc(N(C)C)n1	22	14
Cc1noc(/C=C/N(C)C)c1S(=O)(=O)N(C)C(c1ccccc1)c1ccccc1	3	0
COc1ccc(N(C(=O)c2cccc(NC(C)=O)c2)C(C)C)cc1F	8	4
CN(CCNC(=O)NC1CCC(C(F)(F)F)CC1)Cc1ccccc1 (configuration not stated)	1	0
c1sc2c(c1CN1CCCCCC1)CCCC2	2	-1
COC(=O)c1ccc(S(=O)(=O)N2CC(C)OCC2C)c(C)c1 (configuration not stated)	8	5
Cc1sc2nc(C(C#N)C(=O)CC3C=CCC3)[nH]c(=O)c2c1C (configuration not stated)	3	-2
Cc1cc(OS(=O)(=O)c2cn(C)c(=O)n(C)c2=O)cc(C)c1Cl	0	-1
Oc1cc(CCC2CCCCN2)cc(-c2nccc3occc23)c1 (configuration not stated)	6	5
CCCC(C)(C)C(=O)N1CCC1(C)C(=O)Nc1cccc(OC)c1 (configuration not stated)	5	1
CN(Cc1ccccc1N1CCCC1)C(=O)COc1ccc2c(c1)CCC2	-2	-4
Cc1cccc2c(=O)c(-c3ccccc3)c(NC(=O)C(C)C)oc12	5	3
COc1ccc(-c2ccc(=N)n(CCCC(=O)O)n2)cc1	-13&-5&3	-19&-9&-15
CCN(CC(C)C#N)C(=O)c1c[nH]c2c(C)cccc2c1=O (configuration not stated)	-3	-5
Remaining list, next part
SMILES	NPYLR7 agonist	NPYLR7 agonist max-min
Cc1cc(OC(=O)c2ccccc2)c([N+](=O)[O-])c(=O)[nH]1	-3	-4
CC(=O)Cn1c(CN2CCOCC2)nc2c1c(=O)n(C)c(=O)n2C	-1	-2
Cc1nc(N2CCC(O)(Cn3ccnc3)CC2)c2cnn(C)c2n1	2	14
N#CCSCC(=O)NCC1(c2ccc(Br)cc2)CCC1	4	2
CCn1ccc2c(nnc3c(-c4ccc(F)cc4)c(COC)nn32)c1=O	2	5
N#CCSc1cccc(C(=O)O)c1	-7	-5
CCOC(=O)C1(Cc2cccc(Cl)c2)CCCN(C(=O)c2csc(C(C)=O)c2)C1 (configuration not stated)	18&-1	4&-1
CC(C)CNC(=O)NC(=O)CN1C(=O)NC2(CCC(C)CC2)C1=O (configuration not stated)	2	9
CCN(C)CCN(CC)C(=O)CCc1ccc(-c2ccc(Cl)cc2)n1-c1ccc(OC)cc1	0	-6
C=c1ccccc1=C1C=NNC(N2CCCC(C(=O)CC)C2)=N1 (configuration not stated)	-3	-3
Cc1cccc(NC(=O)CCCSc2ccc(NC(=O)c3ccco3)nn2)n1	-4	-3
COn1c(=O)c(-c2ccc(Cl)cc2)[n+]([O-])c2ccccc21	-2	-5
Cc1ccccc1NC(=O)CN(C)Cc1ccc2c(c1)OCO2	-3	-5
Cc1cccc(Oc2cnn(C)c(=O)c2Nc2ccc(C(=O)NCc3ccco3)cc2)c1C	36	33
COc1ncccc1C(=O)NCC(C)N1CCc2sccc2C1 (configuration not stated)	0	-1
O=C(CCC(=O)N1CCN(C(=O)c2ccccc2)CC1)c1ccc(Cl)s1	0	-5
c1ccc(NC2Cc3ccccc3C2)cc1	6	6
Cc1ccccc1C1CC(c2ccc(F)cc2)=NN1C(=O)CN1CCOCC1 (configuration not stated)	-1	3
CCN1C(=S)NC(c2ccc(NC(=O)/C=C/c3ccccc3)cc2)C(C(=O)OC)=C1C (configuration not stated)	4	16
